Calb biofilm kill: mixtures killing C. albicans biofilm; C. albicans biofilm persisters + clotrimazole, fluorescence viability; primary screen in compound mixtures of four per well; inhibition, % at 7.6 µM; 120,000 compounds, 0.02% hits; AID 1242;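 active = inhibition above 30.3% in the primary screen of four-compound pools, then above 30% when the compound was retested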;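 note: compounds exposed to preformed 24 h biofilms for 48 h; the number belongs to the whole pool; some results filed as inactive read as strong as hits; inactives centre near 12; 0% = biofilm with clotrimazole alone and 100% = kill control; retested singly at about 60 µM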
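Test system: C. albicans CAF4-2 wild-type biofilms; buffer or medium: RPMI/MOPS medium, pH 7.0; schedule: 24 h biofilm formation, then 48 h compound exposure, 37 °C; detection: Alamar Blue fluorescence; measure: percent inhibition of biofilm viability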
Starred values were filed as active, the others as inactive. An excerpt. The share of hits here may be higher or lower than overall.

SMILES	Calb biofilm kill
O=C(CC1SC(=NCC2CCCO2)NC1=O)Nc1cccc2ccccc12 (stereo not given)	9
O=C(CNC(=O)c1cccs1)NCC(=O)OCc1c(F)cccc1Cl	0
COc1ccc(C(=O)/C=C/Nc2ccc([N+](=O)[O-])cc2)cc1	3
CCc1nc(-c2ccccc2)c2ccccn12	18
CC1(C)C2CCC(C2)C1(C)NC(=O)C[N+](C)(C)C (stereo not given)	-7
CC1(C)CC(=O)C(C2(O)C(=O)Nc3ccccc32)CO1 (stereo not given)	12
CCC(C)(C)n1nnnc1C(c1cc(OC)ccc1OC)N1CCN(Cc2ccccc2)CC1 (stereo not given)	3
CCCn1c(=O)c(C(=O)NCC2CCCO2)c(O)c2ccccc21 (stereo not given)	11
CCOC(=O)C1CCCCN1Cc1cn(C)nc1-c1ccccc1F (stereo not given)	26
CN(C)S(=O)(=O)c1ccc(-c2csc(N/N=C/c3ccco3)n2)cc1	24

Some of the entries above in another layout.
SMILES,Calb biofilm kill
O=C(CNC(=O)c1cccs1)NCC(=O)OCc1c(F)cccc1Cl,0
COc1ccc(C(=O)/C=C/Nc2ccc([N+](=O)[O-])cc2)cc1,3
CCc1nc(-c2ccccc2)c2ccccn12,18
CC1(C)C2CCC(C2)C1(C)NC(=O)C[N+](C)(C)C (stereo not given),-7

Further structures:
SMILES	Calb biofilm kill
COc1ccc(C2(c3ccc(O)cc3O)CC(c3ccccc3Cl)NC(=S)N2)cc1 (stereo not given)	5
Cc1ccc(OCc2ccc(C#N)cc2)c(C(=O)c2cc(C#N)c(=O)n(C3CC3)c2)c1	18
COc1ccc(/C=C/C2=NN(C)C(=O)CC2)cc1	4
O=S(=O)(/N=C(/c1ccccc1)N1CCCCCC1)c1ccccc1	-1
COc1ccc(C)cc1C1=Nc2ccccc2C1(C)C	4
CCOc1cc(/C=C2/C(=N)N3OC(C)=CC3=NC2=O)ccc1OC	10
COc1ccc(C)cc1NC(=O)c1cc2c(=O)n3ccccc3nc2n1C	8
O=C(CCC1CCCCC1)NCCN1C2=NC[C@H](Cc3ccccc3)N2C[C@H]1Cc1ccc(O)cc1	17
Cn1c(=O)[nH]c(=O)c2c1nc(N1CCCCC1)n2C/C=N/Nc1ccc(C(=O)O)cc1	14
COc1ccc(N2CCN(S(=O)(=O)c3ccc4c(c3)OCCO4)CC2)cc1	12

Reformatted in CSV form: entries from further up
compound,Calb biofilm kill
CCCn1c(=O)c(C(=O)NCC2CCCO2)c(O)c2ccccc21 (stereo not given),11
CCOC(=O)C1CCCCN1Cc1cn(C)nc1-c1ccccc1F (stereo not given),26

Carrying on:
SMILES	Calb biofilm kill
CC(C)(C)c1ccc(N2C(=N)SCC2=O)cc1	11
N#Cc1ccccc1Sc1ccccc1C(=O)OCC(=O)NC1CCCCC1	10
CSC1=NCCN1C(=O)Cc1cccc2ccccc12	48
NNc1ccc(Cl)c(C(=O)O)c1	11
Cn1c(-c2ccccc2)nc2cnccc21	17
Cc1ccc(S(=O)(=O)NCC(c2cccnc2)N2CCOCC2)cc1 (stereo not given)	17
CCCN(Cc1ccccc1)C(=S)Nc1cccc(C)c1C	4
COc1ccc(CN(C(=O)COc2ccccc2)c2ccccc2C(=O)O)cc1	20
O=C(N/N=C/c1ccco1)C1(O)c2ccccc2-c2ccccc21	26
CCOC(=O)N1CCC(N2Cc3cccc(C(=O)N4CC(C)CC(C)C4)c3C2=O)CC1 (stereo not given)	17
Cc1cc(-c2nc3ncccc3o2)ccc1NC(=S)NC(=O)C(C)C	17
O=C(Cn1cc[n+](CC(=O)c2ccc(Cl)cc2Cl)c1)c1ccc(Cl)cc1Cl	9
COC(=O)CCSC(=S)N1CCOCC1	9
O=C(c1ccccc1)c1nn(-c2ccccc2)c2nnc(Cc3ccccc3)c(=O)n12	6
Cc1cc(C(=O)N/N=C2\CCCC(=O)C2)c(C)n1-c1ccccc1	14
CCOc1ccc(Nc2nc3ccccc3c(=O)s2)cc1	17
CCn1c(C)cc(/C=C2/SC(=O)N(C(C)C(=O)OC)C2=O)c1C (stereo not given)	19
CC(C)CCNC(=O)CCc1nnc(COc2ccccc2)o1	0
COc1ccc(/C=C/C(=O)Nc2ccc(N3CCOCC3)cc2)cc1	14
O=C(Cc1nn[nH]n1)c1ccccc1O	11

By substructure, the compounds so far containing a COOH group (3)
SMILES	Calb biofilm kill
Cn1c(=O)[nH]c(=O)c2c1nc(N1CCCCC1)n2C/C=N/Nc1ccc(C(=O)O)cc1	14
NNc1ccc(Cl)c(C(=O)O)c1	11
COc1ccc(CN(C(=O)COc2ccccc2)c2ccccc2C(=O)O)cc1	20

New compounds follow.
SMILES	Calb biofilm kill
Cc1cc(C(=O)NCc2ccco2)c2ccccc2n1	8
O=C(CSc1cccc2cccc(Cl)c12)NCc1cccs1	12
CCn1nnc(NC(=O)c2ccc(-c3ccccc3[N+](=O)[O-])o2)n1	12
COc1ccc(N2CCN(C(=O)C3CCN(S(=O)(=O)c4ccccc4)CC3)CC2)cc1	11
CC(C)(C)S(=O)(=O)c1cnc(-c2cnccn2)nc1N	21
O=C(CN1C(=O)C2CC=CCC2C1=O)N1CCN(c2ccc([N+](=O)[O-])cc2)CC1 (stereo not given)	13
C/C(=N\NC(=O)CNc1ccc(F)cc1)c1cc2ccccc2o1	-1
COc1ccc(CC(=O)NNS(=O)(=O)c2ccc(F)cc2)cc1OC	2
COC(=O)c1ccc(N/N=C/c2cc([N+](=O)[O-])cc(OC)c2O)cc1	10
O=C(Cn1cc(C(F)(F)F)ccc1=O)N/N=C/c1cccc(Cl)c1	7
COc1ccc(/C=C/c2nc(N)nc(-c3ccccc3O)n2)cc1	7
Cc1sc2ncnc(OCC(=O)N3CCN(C(=O)c4ccco4)CC3)c2c1C	7
S=c1[nH]nc(Nc2ccc(Cl)cc2)s1	12
O=C(OCC(=O)N1CCCC1)c1c2c(nc3ccccc13)CCCCC2	11
N#Cc1nc(COc2ccc(F)cc2)oc1N1CCCCC1	12
CCCCNC(=S)N/N=C/c1cc(C)ccc1C	3
C/C(=N\NC(=O)Cn1c(-c2ccccn2)nc2ccccc21)c1cccc(O)c1	8
CC(NC(=O)COc1ccc(-c2nnco2)cc1)c1ccc(Cl)cc1Cl (stereo not given)	13
Cc1nc2c(ncn2-c2ccccc2)c(=O)n1NC(=O)CN1CCCCC1	18
COC(=O)CCCC1=CC2=C(c3ccccc3)C(=O)C(C)(OC(=O)C3CCCC3)C(=O)C2=CN1CC(C)C (stereo not given)	9
COc1cc(N/N=C(\C)c2ccc(N)cc2)nc(-c2ccccc2)n1	16
O=C(CNC(=O)c1ccccc1)NCc1ccc(Cl)cc1	12
CN(C)CCNc1nc2sc3c(c2c(=O)n1-c1ccc(F)cc1)CCCCC3	20
OCCC1CN(Cc2cnc(-c3ccccc3)s2)CCN1Cc1ccccc1 (stereo not given)	-5
CS(=O)(=O)c1ccc(C(=O)OCc2nnc(-c3ccc(Cl)cc3)o2)cc1[N+](=O)[O-]	9
COc1ccc(S(=O)(=O)N2CCOCC2)cc1NC(=O)Cn1nnc2ccccc2c1=O	13
CCC(C)NC(=O)C1CCN(S(=O)(=O)N2CCOCC2)CC1 (stereo not given)	14
COc1ccccc1-c1ccc(SCc2ccc(F)cc2)nn1	18
CC12C(=O)N(c3ccc(OC(=O)c4ccco4)cc3)C(=O)C1C1c3ccccc3C2c2ccccc21 (stereo not given)	-1
C/C(=N\O)c1ccc2c(c1)CC(C)O2 (stereo not given)	14
COCC(=O)NC1(c2nnnn2CCOC(=O)Nc2ccc(Cl)cc2)CCCCC1	10
CCOC(=O)C1CCN(C(=S)NC2CCCC2)CC1	17
O=C(NCCCN1CCCC1=O)c1ccc(Cl)c(Cl)c1	8
C=CCN(CC=C)C(=S)Nc1ccc2nsnc2c1	13
O=C(O)c1cccc(N2C(=O)Nc3ccccc3N2O)c1	14
CCOc1cc(/C=N/NC(=O)CSc2nncn2C)ccc1OCC(N)=O	24
Cc1ccc(NC(=O)CNC(=O)c2cccs2)cc1S(=O)(=O)Nc1ccc(Cl)cc1	9
Cc1cc(C(=O)NNS(=O)(=O)c2cccc(Cl)c2)nn1C(C)(C)C	10
COCCn1c(C)cc(/C=N/NC(=O)c2cccnc2)c1C	14
O=C1N(Cc2cccnc2)C[C@@H]2C[C@@H](c3cccc(OC4CCCC4)c3)N3CCC[C@@]123	5
CCC1CCCCN1C(=O)c1c(-c2ccccc2)noc1C (stereo not given)	-5
COc1cnn(-c2ccc(C)cc2)c(=O)c1Cl	3
COc1ccccc1-c1ccc(/C=C2/C=C(CC(C)C)OC2=O)o1	11
CC(=O)c1ccc(NC(=O)COC(=O)CCc2ccc(S(=O)(=O)N3CCOCC3)cc2)cc1	9
Cc1cc(C(=O)OC(C(=O)Nc2cccc(C(F)(F)F)c2)c2ccccc2)c(C)o1 (stereo not given)	9
CC(=O)N1N=C(c2ccc(C)cc2)OC1c1cccnc1 (stereo not given)	16
COC(=O)Cn1cc(C#N)c2ccccc21	9
CCOC(=O)C1=C(C)Nc2ccccc2N=C1NC(=O)C(c1ccccc1)c1ccccc1	15
CC(=O)N(C(C)=O)n1c(/C=C/c2ccc([N+](=O)[O-])cc2)nc2ccccc2c1=O	17
COC(=O)CCCCCCCCCC[N+]1(C)CCCCC1	14

Continued:
SMILES	Calb biofilm kill
Cc1cnc([N+](=O)[O-])n1CCOC(=O)NC(=O)c1ccccc1Cl	-11
CC(C)c1nn2c(N)c(/C=C3\C=Nc4ccccc43)c(=O)nc2s1	17
Cc1cccc(/C(N)=N/OC(=O)c2ccc(Br)o2)c1	7
O=C(NCCc1nc2ccccc2[nH]1)c1ccc([N+](=O)[O-])cc1	12
O=C(CCC(=O)c1cccs1)NC1CCCCCC1	13
O=C(CNC(=O)C(c1ccccc1)c1ccccc1)OCc1ccccc1	9
OCC1(Cc2ccccc2)CCN(Cc2cnc(-c3cccc4ccccc34)nc2)CC1	23
Cc1cc(-c2nn(-c3ccccc3F)cc2CN(C)CC(O)CO)c(C)s1 (stereo not given)	1
Clc1cccc(CSc2ccc(-c3cccnc3)nn2)c1	21
CN(C)S(=O)(=O)c1cccc(NC(=O)CSc2nncn2C)c1	5

Reprinted at random: three records from the list
SMILES	Calb biofilm kill
O=C(Cn1cc(C(F)(F)F)ccc1=O)N/N=C/c1cccc(Cl)c1	7
COc1ccccc1-c1ccc(SCc2ccc(F)cc2)nn1	18
COC(=O)CCSC(=S)N1CCOCC1	9

Carrying on:
SMILES	Calb biofilm kill
CC1(C)CC(=O)c2cc(NC(=O)c3ccccc3)c(=O)oc2C1	21
C/C(=N\NC(=O)COc1ccc(C(C)(C)C)cc1)c1ccc2c(c1)OCCO2	14
C/C(=N/NC(=O)CNC(=O)c1cccc(F)c1)c1ccc2c(c1)CCCC2	6
CC(=O)c1cccc(NC(=O)C(=O)c2cn(CC(=O)N3CCCCC3)c3ccccc23)c1	15
CCOC(=O)c1[nH]ncc1CN1CCCC(C(=O)c2ccc(C(C)(C)C)cc2)C1 (stereo not given)	20
Cc1cc(C)c(NC(=S)N(CCCN2CCOCC2)Cc2cccnc2)c(C)c1	16
Cc1cc(C)c2sc(N(CCN(C)C)C(=O)c3c(F)cccc3F)nc2c1	6
Cc1nn(Cc2ccccc2)c(C)c1/C=N/NC(=O)c1ccncc1	11
CCOC(=O)C1=C(COC(=O)C2(C)CC2(Cl)Cl)NC(=O)NC1c1ccc(OC)cc1 (stereo not given)	5
COc1cc(C(=O)NNC(=S)NC(=O)c2ccc3c(c2)OCO3)cc(OC)c1OC	32
C/C(=N\n1cnnc1)c1ccccc1	3
COc1ccccc1OCC(=O)NNC(=O)c1c(-c2ccccc2Cl)noc1C	6
Cc1ccc(NNC(=O)C(=O)N2CCCCC2)cc1	-2
Cc1cccc(NC(=O)CSc2ccc(-c3ccco3)nn2)c1C	15
CN(CC(=O)Nc1cc(S(=O)(=O)N2CCOCC2)ccc1Cl)C1CCS(=O)(=O)C1 (stereo not given)	12
CCOC(=O)c1ccc(Nc2ncccc2[N+](=O)[O-])cc1	7
CCN(CC)C(=O)C1=C(C)NC(=S)NC1c1cccs1 (stereo not given)	11
O=C(CSc1nc2nc3c(cc2c(=O)n1-c1ccccc1)CCCC3)Nc1cccc2ccccc12	4
CCOC(=O)C1(CC2CC2)CCN(C(=O)c2cccnc2C)CC1	17
CC(C)N1CCC(N2CCN(Cc3ccc(-c4ccccc4Cl)o3)CC2CCO)CC1 (stereo not given)	5
CN(C)CCC(=O)c1ccc(F)cc1	19
COc1ccc(N=C2SC(C(=O)Nc3ccc(F)cc3)CC(=O)N2C)cc1 (stereo not given)	9
Cc1[nH]c(=S)[nH]c(=O)c1CCCO	10
COc1ccc(Nc2nnc(-c3ccc(O)cc3)c3ccccc23)cc1C(N)=O	9
O=C(Nc1nncs1)c1cc2c(s1)CCC2	9
Cc1ccc(NC(=O)CSc2nnc(-c3n[nH]c4ccccc34)n2-c2ccccc2)c(C)c1	13
CCc1cc(C(=O)c2ccc(OC)cc2)c(NC(=O)CN2CCCCC2)s1	14
COc1ccc(C(=O)NCc2nnc(SCC(=O)NO)n2Cc2ccccc2)cc1	-2
Oc1ccccc1CN(Cc1ccco1)CC(O)COCc1ccc(Cl)cc1 (stereo not given)	8
O=C(Cc1c(F)cccc1Cl)Nc1ccc(S(=O)(=O)NCC2CCCO2)cc1 (stereo not given)	15
Nc1nc2c(c(=O)[nH]1)C(c1cccc3ccccc13)C1=C(N2)c2ccccc2C1=O (stereo not given)	20
COc1cccc(Nc2ccc(C(=O)O)cc2[N+](=O)[O-])c1	1
COc1ccc(OC)c(NC(=O)c2cccc(C)c2[N+](=O)[O-])c1	6
CC(/C=N/NC(=O)c1cc(-c2ccc3ccccc3c2)n[nH]1)=C\c1ccco1	20
O=C(Nc1ccc([N+](=O)[O-])cn1)C1CC2CCC1C2 (stereo not given)	4

Screens (PubChem BioAssay)
